Source: PubChem (several laboratories)
Mtb growth: M. tuberculosis H37Rv growth inhibitors, H37Rv strain (AID 1626). M. tuberculosis H37Rv growth inhibition; higher % means a stronger effect. one-dose inhibition, % at 10 µM; IC50 in µM for titrated hits. actives 0.95% (n = 220,000);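 active means confirmed in a dose series; inconclusive means inhibition above 80% but not taken into the dose series; inactive means below 80% or under 30% at every dose of the series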;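 further: bacteria incubated seven days before Alamar blue readout; 0% = bacteria only wells and 100% = bacteria with antibiotic wells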
RecA splice inh: blocks M. tuberculosis RecA intein splicing | AID 2221 | cell-free RecA intein splicing, fluorescence | actives 0.75% (n = 290,000) | inhibition, %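 (about 9 µM by stock and volumes)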 | P9WHJ3; in the data active means inhibition above about 30%; inconclusive means no clear call, values can overlap the other calls;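 further: 0% = vehicle wells and 100% = reference inhibitor control wells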
Target sequence (P9WHJ3 whole entry, looked up, canonical isoform): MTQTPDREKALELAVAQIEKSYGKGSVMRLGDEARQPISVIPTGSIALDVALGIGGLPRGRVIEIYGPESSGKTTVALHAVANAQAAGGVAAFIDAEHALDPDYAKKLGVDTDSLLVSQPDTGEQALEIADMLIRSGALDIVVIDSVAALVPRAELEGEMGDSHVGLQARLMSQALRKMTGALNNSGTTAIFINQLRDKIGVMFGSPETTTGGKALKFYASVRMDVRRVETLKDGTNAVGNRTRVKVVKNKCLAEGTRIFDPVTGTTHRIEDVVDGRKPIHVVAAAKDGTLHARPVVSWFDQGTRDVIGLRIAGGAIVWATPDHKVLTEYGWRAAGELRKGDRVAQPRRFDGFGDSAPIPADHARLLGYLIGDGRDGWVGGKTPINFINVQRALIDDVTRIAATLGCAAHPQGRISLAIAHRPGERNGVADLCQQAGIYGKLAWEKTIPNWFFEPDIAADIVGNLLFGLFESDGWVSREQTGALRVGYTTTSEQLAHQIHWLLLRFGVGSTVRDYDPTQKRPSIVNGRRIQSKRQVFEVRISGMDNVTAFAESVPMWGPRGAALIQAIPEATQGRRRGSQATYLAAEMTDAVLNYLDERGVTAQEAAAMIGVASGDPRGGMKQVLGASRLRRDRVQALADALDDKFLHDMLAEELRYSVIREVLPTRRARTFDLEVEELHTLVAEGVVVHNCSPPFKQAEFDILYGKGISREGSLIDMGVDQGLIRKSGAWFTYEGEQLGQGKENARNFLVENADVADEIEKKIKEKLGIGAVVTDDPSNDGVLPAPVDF
Mtb betalactam: beta-lactam sensitization of Mtb H37Rv; M. tuberculosis H37Rv growth with meropenem, percent inhibition; hits of this screen are not shown here; inhibition, % at 25 µM; actives 0.27% (n = 330,000);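 active means about 74% or more and at least 40 points above the plate without the antibiotic, then above 30% in a dose series; inconclusive means first-round hits that could not be retested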;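 further: growth measured after seven days incubation then overnight dye step; 0% = bacteria only wells and 100% = bacteria with antibiotic; twin plates without the antibiotic show which effects depend on it; some results filed as inactive read as strong as hits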
Arbovirus inh: antivirals against arbovirus infection; arbovirus infection cell-based antiviral screen; inhibition, % at 10 µM; actives 0.37% (n = 200,000); AID 1251;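 active means inhibition from about 30%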;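 further: bluetongue infection of BSR cells; cell survival read as ATP light after 72 h; 0% = infected wells without compound and 100% = uninfected wells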
YopH PTP inh: blocks Yersinia enterocolitica YopH tyrosine phosphatase | AID 898 | inhibition, %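 (about 10 µM by stock and volumes)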 | actives 0.16% (n = 140,000) | fluorescence Ex485/Em525;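 active means inhibition of 50% or more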;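 further: controls were vehicle for no effect and minimum signal wells for full effect; inactives centre near -20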
Arbovirus inh repeat: recorded beside Arbovirus inh, whose call it bears; inhibition, %; measured here: 10K subset replicate screen; many hits read low in the repeat;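 first of two repeat runs on a subset; 0% = infected and 100% = uninfected wells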
* = called active by the depositor; ? = inconclusive; . = not tested or not shown. Not all compounds are listed (hit frequency here may not be typical).

SMILES	Mtb growth	RecA splice inh	Mtb betalactam	Arbovirus inh	YopH PTP inh	others
Nn1c(SCC(=O)Nc2ccc3c(c2)OCO3)nnc1-c1ccc(Cl)cc1	-4%	-0.1	-9	-3	-5
O=C(CSc1cccc2cccnc12)N/N=C/c1ccncc1	-3%	-2.2	9	1	.
COc1ccc(CN2CC(=O)N(c3cc(Cl)ccc3OC)C2=S)cc1OC	.	-0.6	3	.	.
CCCCCCCCNc1nc(Cl)nc(NCc2ccco2)n1	3%	-9.1	3	-4	-21
O=C(Nc1ccc(S(=O)(=O)N2CCOCC2)cc1)C1CC1	.	-1.8	16	.	.
Cc1nn(Cc2ccccc2Cl)c(C)c1N	.	2.0	10	-5	-27
CN1CCN(C(=O)C2CCCN(S(=O)(=O)c3ccc(F)cc3)C2)CC1 (stereo unspecified)	.	-2.7	-3	.	.
COc1cccc(CC(=O)Nc2nc(-c3cc(OC)ccc3OC)cs2)c1	-1%	-1.3	3	1	.
O=C(CSc1nnc(-c2ccc(S(=O)(=O)N3CCOCC3)cc2)o1)c1ccccc1F	-1%	0.1	2	1	-11
COC(=O)c1ccc(Cl)c(NC(=O)CN(c2ccc(OC)cc2)S(=O)(=O)c2ccccc2)c1	-6%	-0.7	-4	.	-27
COc1cc2[nH]c(=S)n(CC3CCCO3)c(=O)c2cc1OC (stereo unspecified)	-10%	-0.1	-7	3	-38
CC(=O)c1cccc(NC(=S)N2CCC(Cc3ccccc3)CC2)c1	-3%	.	-1	11	.

No new results follow: six of the compounds above.
SMILES	Mtb growth	RecA splice inh	Mtb betalactam	Arbovirus inh	YopH PTP inh	others
Nn1c(SCC(=O)Nc2ccc3c(c2)OCO3)nnc1-c1ccc(Cl)cc1	-4%	-0.1	-9	-3	-5
O=C(CSc1cccc2cccnc12)N/N=C/c1ccncc1	-3%	-2.2	9	1	.
COc1ccc(CN2CC(=O)N(c3cc(Cl)ccc3OC)C2=S)cc1OC	.	-0.6	3	.	.
CCCCCCCCNc1nc(Cl)nc(NCc2ccco2)n1	3%	-9.1	3	-4	-21
O=C(Nc1ccc(S(=O)(=O)N2CCOCC2)cc1)C1CC1	.	-1.8	16	.	.
Cc1nn(Cc2ccccc2Cl)c(C)c1N	.	2.0	10	-5	-27

(continued)
SMILES	Mtb growth	RecA splice inh	Mtb betalactam	Arbovirus inh	YopH PTP inh	others
Cc1ccccc1N(C)C(=O)c1coc(=O)c2ccccc12	-4%	-0.9	3	3	-133
O=[N+]([O-])c1ccccc1/C=N/Nc1nc(N2CCCC2)nc(N2CCCC2)n1	10%	1.7	12	5	.
COc1ccccc1CNC(=O)Cn1nc(C)c([N+](=O)[O-])c1C	.	-1.4	6	.	.
COC(=O)c1c(NC(=O)CCC(=O)O)sc(Cc2ccccc2)c1C	-8%	-0.7	-4	.	.
NS(=O)(=O)c1ccc(CNC(=O)C(c2ccccc2)c2ccccc2)cc1	.	1.0	-6	.	.
O=C(NC(=S)Nc1ccccc1[N+](=O)[O-])c1cncc(Br)c1	.	-2.9	-4	.	.
CN(C)c1ccc(S(=O)(=O)N2CCCCC2)cc1NC(=O)C1=COCCO1	.	-0.6	0	.	.
Cc1cc(C)cc(OCC(=O)Nc2ccc3c(c2)OCO3)c1	-8%	4.7	-7	-15	.
CC(C)c1c(O)c2c(n(-c3ccccc3)c1=O)CCCC2	13%	3.1	18	1	-17
Cc1ccc(C(=O)N/C(=C/c2ccco2)C(=O)NCCc2c[nH]c3ccccc23)cc1C	2%	3.9	-8	-17	-24
COc1ccc(-c2cc(=O)oc3cc(OCC(=O)NCc4ccccn4)ccc23)cc1	.	-2.6	-6	.	.
CCc1cccc(OCC(O)Cn2c(N3CCCCC3)nc3c2c(=O)[nH]c(=O)n3C)c1 (stereo unspecified)	.	0.8	-2	.	.
COC(=O)c1ccc(C)c(NC(=O)CSc2sc3c(O)cc(=O)[nH]c3c2C#N)c1	.	0.6	-7	.	.
COc1ccc2oc(=O)c(C(=O)NCCc3ccc(OC)c(OC)c3)cc2c1	.	-0.8	-1	.	.
O=c1c(Cc2ccc(Cl)cc2)c(O)ccn1Cc1cccs1	3%	0.4	-1	4	.
Cc1ccc(C2=NN(CCC(=O)NCc3ccc4c(c3)OCO4)C(=O)CC2)cc1	-2%	0.8	-2	-9	-22
COc1cc(/C=N/NC(=O)c2cc(-c3ccccc3C)nc3ccccc23)cc(OC)c1O	.	-0.9	8	.	.
CCOC(=O)Cn1c(-c2cccnc2)nc(-c2ccccc2)c1-c1ccccc1	.	-1.6	2	.	.
COC(=O)Cc1csc(Nc2ccc(Cl)cc2)n1	0%	-0.8	-3	-8	-31
S=C(c1ccc(N2CCOCC2)cc1)N1CCCCC1	-1%	0.1	-4	-4	-29
CCCC1CCC(C(=O)Nn2c(C)nc3ccccc3c2=O)CC1 (stereo unspecified)	?	2.4	99	-2	-21
C#CCOCCOCCOCCNc1nc(N2CCN(C(=O)[C@H]([C@@H](C)CC)n3cc([C@@H](N)CC(C)C)nn3)CC2)nc(N2CCN(C(=O)[C@H](Cc3cc4ccccc4[nH]3)n3cc([C@@H](N)CC(C)C)nn3)CC2)n1	33%	2.0	.	.	.
CCOC(=O)c1cccc(NC2c3ccccc3C(=O)N2Cc2ccco2)c1 (stereo unspecified)	8%	2.5	-5	15	-28	Arbovirus inh repeat=15
CC1CCCN(S(=O)(=O)c2ccc3c(c2)n(C)c(=O)c(=O)n3C)C1 (stereo unspecified)	8%	-1.4	-3	.	.

Sorted by SMILES length (low to high): part of the list above.
SMILES	Mtb growth	RecA splice inh	Mtb betalactam	Arbovirus inh	YopH PTP inh	others
COC(=O)Cc1csc(Nc2ccc(Cl)cc2)n1	0%	-0.8	-3	-8	-31
O=c1c(Cc2ccc(Cl)cc2)c(O)ccn1Cc1cccs1	3%	0.4	-1	4	.
CCCC1CCC(C(=O)Nn2c(C)nc3ccccc3c2=O)CC1 (stereo unspecified)	?	2.4	99	-2	-21
COc1ccc2oc(=O)c(C(=O)NCCc3ccc(OC)c(OC)c3)cc2c1	.	-0.8	-1	.	.

The list continues.
SMILES	Mtb growth	RecA splice inh	Mtb betalactam	Arbovirus inh	YopH PTP inh	others
COc1cccc(-c2cc(C(=O)O)[nH]n2)c1	-2%	1.7	10	9	-17
O=C(NCC1CCCO1)c1cc2ccccc2o1 (stereo unspecified)	.	-2.6	0	.	.
COc1ccc(NS(=O)(=O)c2ccc(C)c(C(=O)NCC(c3cccs3)N3CCOCC3)c2)cc1 (stereo unspecified)	.	3.3	1	.	.
CC(C)(C)OC(=O)N1CCC[C@H]1C(=O)N/N=C/c1ccc2nccnc2c1	0%	-2.5	-2	.	.
Cc1ccc(-n2ncc3c(=O)[nH]c(SCC(=O)N4CCCC4)nc32)cc1C	.	-0.2	6	2	-36	Arbovirus inh repeat=-1
O=C(CN1CCN(S(=O)(=O)c2ccc3ccccc3c2)CC1)NC(=O)NC1CCCCC1	17%	6.8	5	-16	-15
COc1ccccc1N1CCN(C(=O)c2ccc3[nH]c4c(c3c2)CC(C)CC4)CC1 (stereo unspecified)	15%	17	85	-18	-16
CN1CCN(c2ccc(C(=O)c3cn(-c4ccc(F)c(Cl)c4)nn3)cc2)CC1	3.4µM*	0.0	98	-8	.
Cc1nn(-c2ccccc2)c(C)c1/C=N/NC(=O)c1cc(C(C)(C)C)[nH]n1	-5%	-0.6	32	1	-41
COc1ccc(NC(=O)C2CCCN2S(=O)(=O)c2ccc3c(c2)CCC(=O)N3)cc1 (stereo unspecified)	-4%	4.5	-3	-7	-38
O=C1SCCC1NS(=O)(=O)c1ccc([N+](=O)[O-])cc1 (stereo unspecified)	.	0.6	-2	.	.
COCc1cc(N2CCCCC2)nc(-c2ccccc2)n1	8%	2.7	2	17	.
COc1cc(SC)ccc1C(=O)OCC(=O)NCC(C)C	-3%	-1.3	2	1	.
CCOC(=O)c1cccc(NC(=O)C2CCCN(S(=O)(=O)c3cnc[nH]3)C2)c1 (stereo unspecified)	-6%	.	-2	9	-32
CC1CCN(c2c(NCC3CCC(C(=O)N4CCCC(C)C4)CC3)c(=O)c2=O)CC1 (stereo unspecified)	-5%	-0.6	-2	1	-4
CCC1Nc2ncnc(N3CCOCC3)c2N(Cc2ccccc2)C1=O (stereo unspecified)	.	-3.4	-1	.	.
Cc1ccc(NC(=O)CNC(=O)OCc2ccccc2)cc1C	3%	4.3	-5	-25	.
Clc1ccc(OCCOCCOc2cccc3cccnc23)c(Br)c1	10%	4.9	8	-4	-30
CCn1c(SCC(=O)NNC(=O)Cc2ccccc2)nnc1-c1ccncc1	-3%	3.0	-5	4	.
COC(=O)[C@H]1[C@H](C(=O)OC)[C@@H](C(=O)OC)N(c2ccc(OC)cc2)[C@@H]1C(=O)OC	-2%	-2.4	-6	0	-21
O=C(NC1CCCC1)c1ccc(Cl)s1	.	-1.4	4	.	.
Cc1cc(C(=O)N/N=C/c2cccc([N+](=O)[O-])c2O)n[nH]1	4%	0.1	-8	-11	-17
COc1ccc(N2CCN(C3CCCN(C(=O)CN4CCOC4=O)C3)CC2)cc1 (stereo unspecified)	.	-4.1	-9	.	.
CC(C)(C)NC(=O)NC(=O)COc1ccccn1	1%	-1.0	-3	4	0
CC(=O)NC(=O)NC1CSCC1OC(C)=O (stereo unspecified)	-12%	-9.4	4	4	-11
Cc1ccc(NCC(O)Cn2cnc3c2c(=O)n(C)c(=O)n3C)cc1 (stereo unspecified)	-21%	-1.4	1	.	.
CCc1nnc(NC(=O)CSc2nnc(C(C)NC(=O)c3ccccc3)n2C)s1 (stereo unspecified)	.	-1.0	-5	.	.
COc1ccccc1CNC(=O)CC(NS(=O)(=O)c1ccc(C)cc1)c1ccco1 (stereo unspecified)	4%	1.9	2	0	-46
CC12C=CC(=O)C=C1CCC1C2C(=O)C[C@@]2(C)C1CCC2(O)C(=O)CO (stereo partly specified)	-17%	15	-2	.	.
CC(C)C(=O)Nc1cccc(C(=O)NCc2ccc(S(N)(=O)=O)cc2)c1	4%	.	3	1	10
CCCCNC(=O)CCn1nc(-c2ccccc2)c2ccccc2c1=O	.	-0.7	-5	.	.
O=C(Nc1ccccc1C(=O)N1CCCCC1)c1cccs1	.	1.0	-4	.	.
COc1ccc2cc3cc(C(=O)N(C)C4CCCCC4)oc3nc2c1	.	-0.4	61	.	.
Cc1ccc(SCCN2CCN(C)CC2)cc1	.	0.9	0	.	.
O=C(CNc1ccc(F)cc1)c1ccccc1	5%	0.0	8	-13	.
O=C(NCc1ccco1)c1ccc2c(c1)N(Cc1ccccc1)C(=O)CS2	-3%	5.0	-5	1	-4
CC(C)(C)n1nnnc1C(c1cccc(C#N)c1)N1CCC(Cc2ccccc2)CC1 (stereo unspecified)	9%	14	11	-9	-3
Cc1ccc(N2CC(C(=O)Nc3nnc(SCC(=O)Nc4nc(C)cs4)s3)CC2=O)cc1 (stereo unspecified)	15%	3.8	6	17	-14
COc1ccc(CSc2ncnc3sccc23)cc1F	3%	-0.8	-1	7	.
Cc1nc(-c2ccccn2)nc(SCC(=O)c2ccc(F)cc2)c1Cl	7.4µM*	1.6	96	.	.
CCN(CC)CCCNC(=S)N(CCO)Cc1cc2cc3c(cc2[nH]c1=O)OCO3	.	2.2	-7	.	.
O=C1C(C=NCCCN2CCCC2=O)=C(O)c2ccccc21	3%	0.2	2	-7	-46
Cc1ccc(C)c(S(=O)(=O)NCC(=O)Nc2ccc3c(c2)OCO3)c1	.	-0.4	-3	.	.
CN(CC(=O)NCc1cccnc1)S(=O)(=O)c1cc(Cl)ccc1Cl	.	0.0	-9	.	.
c1ccc(Nc2nc(-c3ccncc3)cs2)nc1	7%	5.1	35	-3	-33
COc1ccc(OC)c(NC(=O)c2nc(-c3ccccc3)oc2C)c1	-2%	3.7	2	-5	.
CS(=O)(=O)N(CC(=O)Nc1ccccc1C(=O)N1CCCC1)c1ccc2c(c1)OCO2	3%	-2.6	-10	-3	.
CCOC(=O)N1CCN(C(=O)c2cc3c(s2)-c2ccccc2OC3)CC1	8%	-0.2	4	-4	-15
COc1cc(OC)cc(C(=O)Nc2cccc(NC(C)=O)c2)c1	-3%	-3.7	-4	-6	-34	Arbovirus inh repeat=-6
CCOc1ccc(CC(=O)C2C(=O)CC(C)(C)CC2=O)cc1OCC	-11%	.	0	3	17
COC(=O)CCC(=O)N1CCc2cc(S(=O)(=O)N3CCc4ccccc43)ccc21	-7%	5.3	-5	3	-16
